Bioassay records: PubChem, several laboratories
Beta cell apopt: inhibitors of cytokine-induced beta cell apoptosis, primary screen, luminescence; INS-1E cytokine-induced death, ATP luminescence, 48 h; percent of positive-control rescue, neutral wells zero; AID 435005, 2010; actives 0.8% (n = 300,000); protection from apoptosis, % (test concentration not listed);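 active = all replicates at 75% or more, or half of them and the mean; inconclusive = half reach 75% but not the mean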;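 note: 0% = cytokine-treated negative control wells and 100% = positive control rescue; higher means more ATP so stronger rescue from cytokine killing; wells of about 40 µL received 100 nL stock; the first replicate is given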
LANA-H2A inh: blockers of LANA interaction with H2A/H2B – biochemical, FP readout, HTS, primary screen; inhibition, % (no concentration beside the values); actives 0.6% (n = 320,000); cell-free LANA-H2A/H2B peptide, fluorescence polarization; in the data active = inhibition mostly above about 10%, no sharp cut-off; inactive = mostly below about 6.7%;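 note: stock transfer was 7.5 nL into about 10 µL; 0% = median of vehicle wells and 100% = median of positive control wells; one replicate is shown; the record names a cut of 25% in any replicate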
RanGTP-Impb inh: inhibitors of RanGTP-importin-beta interaction, primary screen, biochemical, FRET, CFP-Ran, YFP-importin-beta, homogeneous | cell-free CFP-Ran/YFP-importin-beta FRET ratio | inhibition, % (concentration not given with the values) | actives 1.1% (n = 300,000) | AID 2216, 2009;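 active = most replicates above 15%; inconclusive = exactly half above 15%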;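 note: 0% = DMSO wells and 100% = Ran loaded with GDP instead of GTP; wells of about 40 µL received 100 nL stock; the first replicate is given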
T cruzi inh: inhibitors of intracellular T. cruzi growth, primary screen, luminescence, NIH3T3 host cells; T. cruzi beta-gal in NIH3T3, 90 h; inhibition, % (no concentration beside the values); actives 1.4% (n = 300,000);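 active = mean inhibition across valid replicates above about 55%, limit read from the data; inconclusive = mean below that limit but half or more replicates reach it; inactive = mean below it, under half of replicates reach it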;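 note: signal also drops with host cell toxicity which is not excluded here; 0% = plate median of DMSO wells and 100% = zero luminescence signal; higher percent means less beta-gal luminescence so fewer parasites; stock transfer was 50 nL into about 50 µL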
Calb FLC: C. albicans growth inhibition with fluconazole, primary screen, CaCi-2 strain, Alamar Blue fluorescence; C. albicans CaCi-2 (fluconazole-resistant clinical isolate) + fluconazole, 48 h; growth inhibition, % (no concentration beside the values); actives 0.57% (n = 300,000); AID 1979, 2009;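 active = most replicates above 75%; inconclusive = exactly half above 75%; inactive = most below 75%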;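 note: all wells also contain fluconazole at 8 µg/ml as a sub-toxic cotreatment; 0% = median of DMSO wells and 100% = median of geldanamycin control wells; wells of about 8 µL received 7.5 nL stock; the first replicate is given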
Bfl-1 A1 inh: caspase 3/7 activation in MEF A1-2A-BIM cells, primary screen, A1 inhibitor project, cell-based, luminescence, HTS; Caspase-Glo 3/7 luminescence, 3 h; percent of clofoctol response, vehicle zero; caspase activation, % (no concentration beside the values); actives 0.066% (n = 330,000); AID 2462, 2010;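 active = over half of replicate activation scores above 10%, or exactly half above 10 with the replicate mean above 10; inconclusive = replicate mean below 10 yet half the replicates above 10; inactive = over half of replicates below 10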;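 note: wells of about 30 µL received 50 nL stock; many hits fall short of the cut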
B2AR ag: beta2AR agonists driving receptor internalization, primary screen, cell-based, FAP fluorogen, flow cytometry. response, % (no concentration beside the values). Am2.2-beta2AR cells; reference of the scale not given here. actives 0.43% (n = 340,000);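 active = response above a set limit, near 3 SD of response in nonfluorescent compounds, cut at about 42% in these data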;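 note: stock transfer was 100 nL into about 11 µL; a reference agonist was the positive control; negative values mostly stem from fluorescent compounds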
Target sequence (P07550 whole entry, looked up): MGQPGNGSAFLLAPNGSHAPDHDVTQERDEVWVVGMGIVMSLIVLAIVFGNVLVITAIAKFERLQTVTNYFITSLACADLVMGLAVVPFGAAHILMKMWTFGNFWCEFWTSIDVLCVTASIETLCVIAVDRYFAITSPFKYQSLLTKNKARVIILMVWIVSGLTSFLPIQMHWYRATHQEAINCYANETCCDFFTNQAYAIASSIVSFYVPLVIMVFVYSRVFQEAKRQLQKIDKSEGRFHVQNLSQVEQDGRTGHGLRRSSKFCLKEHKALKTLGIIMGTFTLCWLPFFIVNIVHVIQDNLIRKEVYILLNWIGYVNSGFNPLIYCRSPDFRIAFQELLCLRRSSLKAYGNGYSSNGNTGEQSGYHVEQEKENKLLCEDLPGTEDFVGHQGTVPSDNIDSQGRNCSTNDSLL
UCH37 inh: inhibitors of human UCH37 deubiquitinase, primary screen, biochemical, Ub-AMC cleavage, fluorescence; Ubiquitin carboxyl-terminal hydrolase isozyme L5 (Homo sapiens), Q9Y5K5; purified proteasome/UCH37; inhibition, % (no concentration beside the values); actives 0.33% (n = 330,000); AID 588478, 2011;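 active = mean of two replicates above 20%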;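 note: 0% = compound-free wells with enzyme and 100% = wells lacking proteasome; stock transfer was 100 nL into about 20 µL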
Target sequence (Q9Y5K5 whole entry, looked up): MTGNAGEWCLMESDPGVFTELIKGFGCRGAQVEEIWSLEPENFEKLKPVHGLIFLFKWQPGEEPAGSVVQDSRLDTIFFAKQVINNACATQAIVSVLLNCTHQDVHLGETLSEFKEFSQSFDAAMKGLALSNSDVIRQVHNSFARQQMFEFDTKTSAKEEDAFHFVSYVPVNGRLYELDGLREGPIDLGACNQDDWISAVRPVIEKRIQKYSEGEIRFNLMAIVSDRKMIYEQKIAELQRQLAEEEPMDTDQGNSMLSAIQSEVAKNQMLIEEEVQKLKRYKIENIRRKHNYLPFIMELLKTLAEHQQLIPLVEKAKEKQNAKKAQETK
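system = Proteasome-associated human UCH37 deubiquitinase | amount = 0.15 nM proteasome as dispensed | medium = pH 7.4 Tris-HCl (50 mM) with ovalbumin, ATP-MgCl2, DTT | incubation = 30 min preincubation with enzyme, 25 min cleavage at room temperature | detection = AMC fluorescence 355/460 nm | read-out basis = percent inhibition | controls = no-proteasome and no-compound wells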
Active calls of the source: *; ? = inconclusive; . = no result given.

Compound,Beta cell apopt,LANA-H2A inh,RanGTP-Impb inh,T cruzi inh,Calb FLC,Bfl-1 A1 inh,B2AR ag,UCH37 inh
CCOC(=O)CCNC(=O)Nc1cc2nc(C)n(Cc3cccc(Cl)c3)c2nc1C,-9.4,-1.9,-0.5,4.2,-1.4,0.5,1.0,1.1
COc1ccc(N/C=C/C(=O)c2ccc(OC)c(OC)c2)cc1,.,4.5,-0.8,-7.8,4.1,-5.2,2.2,-18.6
O=C(CN1C(=O)NC(c2ccccc2)(c2ccccc2)C1=O)NCCc1ccc(F)cc1,5.2,1.0,.,.,.,0.8,5.2,-1.6
O=C(CSCc1cc(=O)n2ccsc2n1)Nc1ccc(F)cc1,-1.5,-2.6,0.0,-7.6,-13.4,0.6,3.0,-2.2
COc1cc2c(cc1OC)C(c1cc3ccc(C)cc3[nH]c1=O)N(C(=O)c1ccco1)CC2 (stereo unspecified),1.6,-3.0,0.9,30.8,0.0,0.2,-9.5,1.8
COc1ccc(NS(=O)(=O)c2ccc3c(c2)oc(=O)n3C)c(OC)c1,-3.2,-2.3,0.8,3.8,-2.0,1.0,-15.3,4.8
COC(=O)c1cc(C)sc1NC(=O)CCc1ccccc1,.,5.5,-2.2,2.3,-3.2,-0.1,3.0,3.5
Cn1ccnc1SCC(=O)c1ccc(OC(F)F)cc1,-5.4,2.6,-3.0,-5.6,-8.0,-1.9,-0.2,2.6
CN(CC(=O)Nc1ccccc1C(F)(F)F)C(=O)CCc1nc2ccccc2c(=O)[nH]1,.,-8.4,3.2,6.5,-8.2,0.9,-0.2,3.5
COCCNC(=O)/C(C#N)=C/c1ccc(O)c([N+](=O)[O-])c1,4.4,0.3,-3.0,0.8,17.4,-0.7,3.1,19.8
CCOc1ccccc1NC(=O)CSc1ccc(-c2ccco2)nn1,-9.7,0.3,0.6,6.5,1.4,-0.5,-0.6,-4.0
CCOc1ccc2nc(/N=C/c3c(C)[nH]n(-c4ccc(C)cc4)c3=O)sc2c1,31.7,5.4,4.2,-9.9,0.5,-0.5,6.6,.
Cc1cc(C)nc(SC2=CS(=O)(=O)c3ccccc32)n1,-35.6,4.2,0.6,20.9,-9.2,0.4,1.0,0.1
COC(=O)C1=C(C)NC2=C(C(=O)CCC2)C1c1coc2ccccc2c1=O (stereo unspecified),-1.2,0.2,2.8,6.8,-10.0,-0.1,-7.0,-3.1
O=C(/C=C(\c1ccccc1)n1cncn1)c1ccccc1,-0.2,-4.0,6.3,27.9,8.7,1.1,36.0,-1.9
CN1CCN(C(=O)/C=C/c2cn(-c3ccccc3)nc2-c2ccc3c(c2)OCCO3)CC1,7.3,-3.9,8.7,17.7,27.5,1.9,23.9,-10.2
COc1ccc(C)cc1S(=O)(=O)n1c([N+](=O)[O-])cnc1C,.,-5.6,0.4,-3.7,-5.2,2.0,-0.1,5.0
O=C(CN1CCN(CC(=O)Nc2ccccc2Cl)CC1)Nc1ccc(F)c(F)c1,.,0.5,2.3,11.0,-0.1,0.4,9.5,0.6
COc1ccc2c(c1)C(C)=CC(C)(C)N2S(=O)(=O)c1ccc(Br)cc1,39.0,3.6,1.7,67.1*,42.7,0.2,13.6,2.3
O=C1c2ccccc2C(=O)N1Cc1nc2ccccc2c(=O)n1CCN1CCOCC1,-4.1,-10.2,3.4,7.0,?,-0.1,21.8,-1.5
O=C(CN1CCOCC1)N/N=C/c1ccco1,.,0.0,0.2,-13.9,2.6,-0.5,-3.5,.
COc1ccccc1C(=O)NCCc1c(C)[nH]c2c(C)ccc(F)c12,-1.0,2.0,0.3,-10.3,-12.6,0.6,-8.2,0.0
O=C(C#Cc1ccccc1)Nc1ccc(F)cc1,-1.3,12.7,2.0,-11.4,-10.0,0.0,-1.0,4.4
Cc1ccc(-c2cc(C(=O)NCC3CCCO3)no2)cc1 (stereo unspecified),.,7.0,7.2,-4.4,11.4,-0.9,0.7,2.5
CC(=O)N1N=C(c2ccccc2)OC12CCCC2,-3.9,-1.8,4.3,0.9,-16.3,0.9,-3.6,-2.1
O=C(N[C@@H](Cc1c[nH]c2ccccc12)C(=O)O)C1CCN(S(=O)(=O)c2cccs2)CC1,1.4,4.6,10.2,1.6,4.0,0.0,-10.4,0.9
O=C(CC(=O)c1ccccc1)Nc1ccccc1C(F)(F)F,3.5,-1.9,2.5,-6.8,0.3,0.5,5.5,3.2
CCN(CC)C(=O)CN(C#N)c1nc(OC)nc(N(C)C)n1,2.0,-4.1,5.4,-6.6,?,-0.1,-0.3,0.7
CN(C)c1ccc(S(=O)(=O)NCC(=O)OCC(=O)Nc2cc(Cl)cc(Cl)c2)cc1[N+](=O)[O-],.,5.5,0.1,-15.3,19.5,-0.1,-2.6,3.1
O=C(Nc1cccc2cccnc12)c1cccc([N+](=O)[O-])c1,-3.6,1.7,-1.1,-6.4,0.0,-0.8,-1.9,2.9
O=C(CSc1nnc(-c2cccnc2)o1)Nc1cccc(Cl)c1,-4.9,0.6,2.1,-7.0,-2.3,-0.5,-9.8,6.1
Cc1cc(C)c(NC(=O)CSc2cccc[n+]2[O-])c(C)c1,3.3,8.8,.,.,.,0.1,-0.8,5.6
O=C(CNC1CCCCC1)N1CCc2ccccc2C1,-5.8,3.9,?,-10.5,-11.3,0.7,2.1,1.6
Cc1cc(C(=O)O)c(C)n1-c1ccccc1,-0.5,-10.9,-2.4,-10.4,-8.8,0.5,-5.8,3.0
CCOc1cc(C(=S)N2CCOCC2)ccc1OS(=O)(=O)c1ccc(NC(C)=O)cc1,16.0,9.6,1.5,-1.4,0.6,-2.9,-2.4,0.6
Cc1nc(C)c(-c2csc(Nc3ccc(F)cc3)n2)s1,-4.0,0.6,2.6,1.1,1.6,-0.5,7.7,1.5
COc1ccc(C(=O)N2CCN(Cc3ccccc3C(F)(F)F)CC2)cc1,-5.4,2.6,-3.3,-7.2,6.2,0.0,6.9,7.0
CCSc1ncc(Cl)c(C(=O)Nc2ccc(S(=O)(=O)Nc3onc(C)c3C)cc2)n1,-8.3,0.3,1.7,-2.9,-3.8,1.6,0.2,2.3
COc1ccc(Cc2nnc(NC(=O)C3CCCO3)s2)cc1OC (stereo unspecified),1.5,6.1,1.4,-10.3,-3.1,0.4,1.3,3.4
Cc1cc(NC(=O)c2sc(Nc3ccc(F)c(Cl)c3)nc2N)no1,20.9,3.0,-2.2,14.0,64.9,0.1,4.3,3.0
CSc1ncc(Cl)c(C(=O)Nc2cccnc2)n1,-3.3,-0.9,2.7,-6.0,2.7,0.0,-5.5,2.5
CS(=O)(=O)N1CCN(CC(=O)NC2CCCCC2)CC1,1.6,0.9,5.4,-5.6,26.2,0.7,-1.5,1.8
COC(=O)C1=C(C)N(c2ccc(C)c(C)c2)/C(=C/c2ccc(O)cc2)C1=O,0.1,-8.9,-1.4,18.3,6.5,0.5,-17.9,1.1
Clc1ccc(-n2nnc(-c3cccnc3)n2)cc1Cl,0.2,10.1,-2.5,-16.2,-3.5,-1.6,-11.0,0.6
CC(NC(=O)COC(=O)C12CC3CC(CC(O)(C3)C1)C2)c1ccccc1 (stereo unspecified),-0.4,-2.5,.,.,.,2.1,4.0,3.6
COC(=O)NCCOc1cc(C)ccc1C,-4.9,0.9,-1.8,-19.9,5.1,0.4,-2.5,-1.5
CCOc1ccc2[nH]c(C(=O)N/N=C/c3cccc(OC)c3OC)cc2c1,-0.3,-1.0,-0.8,2.8,30.3,0.8,17.5,.
CCOc1cc(/C=N/NC(=O)c2cccnc2)cc(Br)c1OCC(N)=O,-4.4,3.2,-15.6,-14.4,10.4,0.8,-5.1,.
O=C(O)CSc1nnc(COc2cccc3ccccc23)n1Cc1ccccc1,-4.5,-0.7,-3.1,7.2,22.5,-0.3,1.3,2.6
Cc1ccc(C(=O)NNc2c3ccccc3nc3ccccc23)cc1,14.8,5.4,39.2*,38.3,-11.1,0.6,9.2,3.7
C=CCn1c(COc2ccc(OC)cc2)nc2ccccc21,-3.5,0.7,2.7,-1.7,13.8,-0.7,-2.2,3.0
O=C(Oc1cc(=O)oc2ccccc12)c1ccco1,-4.6,-0.3,-2.0,-21.2,3.5,1.1,7.9,4.4
O=C(O)c1ccc(/C=N/NC(=S)NC2CCCCC2)cc1,-0.1,-0.8,-0.3,-23.2,-8.2,-0.2,0.6,.
COc1ccc(/C=C(/NC(=O)c2ccccc2)C(=O)Nc2cccc(C(=O)O)c2)cc1,-3.8,4.6,1.5,-1.0,29.8,0.6,-12.0,5.2
COC(=O)C1CCN(Cc2c(C(=O)N3C[C@@H](C)O[C@@H](C)C3)nc3ccc(Cl)cn23)CC1,-1.6,-1.2,2.2,-14.2,87.2*,1.0,-4.2,1.9
CN(CC(=O)NC(=O)NC1CCCCC1)c1ccccc1,1.2,0.8,.,.,.,0.3,-9.2,-0.2
COCCn1c(C)cc(C(=O)COc2ncnc3ccc(Br)cc23)c1C,-1.9,1.2,-4.2,10.6,-3.4,0.4,-6.2,-2.5
COc1ccc(N(CC(=O)Nc2ccccc2OC)S(=O)(=O)c2ccc(NC(C)=O)cc2)cc1,16.0,-6.0,-0.8,-5.3,-24.2,0.1,-4.5,2.8
CCOC(=O)N1CCN(C(=O)C2CCN(S(=O)(=O)c3ccc(C)cc3)CC2)CC1,2.2,0.9,-1.5,-13.8,3.1,0.4,0.4,2.6
